Source: PubChem BioAssay
Bst PK mod = alters activity of Bacillus stearothermophilus pyruvate kinase; partly purified Bacillus stearothermophilus pyruvate kinase, luminescence ATP production; ribose 5-phosphate activator present at AC10; Potency, µM; 51,000 tested, 1.2% active; AID 361; in the data active means potency below about 11 µM; inconclusive means mostly about 12 µM to 25 µM; inactive means weaker than that;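 the screen sought inhibitors and activators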;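 note: potency is the fitted concentration of half-maximal effect; scaled between full activation by ribose 5 phosphate and full inhibition by luteolin; about four in five hits inhibit and the cells do not say which; series up to 57 µM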
YjeE inh = inhibitors of E. coli YjeE (TsaE); purified YjeE, fluorescence polarisation of a bound ADP probe; 71,000 tested, 0.05% active; Potency, µM; P0AF67; active = well fitted falling curve; inconclusive = weaker or top-dose-only fall, or a rising curve; inactive = flat or poorly fitted curve;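 note: top concentration of the series not given in the record; excess ADP was the control for the full effect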
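Purified YjeE (10 uM) with BODIPY Texas Red-labeled ADP probe (2 uM); compounds pin-transferred, 15 min at room temperature. Binding inhibition read as decreased fluorescence polarization; ADP titration as control.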
Active calls of the source: *; i = inactive; u = inconclusive; x = no result given. This is a subset. The share of hits here may be higher or lower than overall.

SMILES | Bst PK mod | YjeE inh
COc1ccc(C(=O)Oc2ccc3c(c2)OCO3)cc1OC | x | i
COc1cccc(-c2nn(-c3ccccc3)cc2C(=O)O)c1 | >57 | i
CC(C)N(C#N)c1nc(N2CCOCC2)nc(N2CCOCC2)n1 | >57 | i
COC(=O)C1CCN(c2cc(=O)n(Cc3ccc(F)cc3)c(=O)[nH]2)CC1 | >57 | i
O=C(CCCN1C(=O)c2ccccc2C1=O)N1CCN(c2ccccn2)CC1 | >57 | i
Cc1ccc(CSc2nc3c(c(=O)[nH]2)CCC3)cc1 | x | i
O=C(O)CCCC(=O)N1CCN(C(c2ccccc2)c2ccccc2)CC1 | >25.6 | x
N#CCCn1c(=O)c(CCc2ccccc2)nc2cnc(Oc3cccc(Cl)c3)nc21 | x | i
O=C(CCC1CC(=O)Nc2ccccc21)NCc1cccnc1 (configuration not stated) | x | i
Cc1cc(C)c(NC(=O)CS(=O)CC(=O)Nc2cccnc2)c(C)c1 (configuration not stated) | >57 | i
O=C(O)CSc1nnc(C2CC2)n1-c1ccccc1 | >57 | i
COc1ccc(S(=O)(=O)N2CCCC(C(=O)N3CCOCC3)C2)cc1C (configuration not stated) | >57 | i
COc1ccc(CNC(=O)CN(CC2CCCO2)C(=O)CNS(=O)(=O)c2ccc(C)cc2)cc1 (configuration not stated) | >57 | i
CCCCN(CC)CCNC(=O)c1cc2c(=O)n(C)c3ccccc3c2n1C | x | i
CCCOc1c(Br)cc(C(=O)NCC)cc1OC | >57 | i
CCCS(=O)(=O)N1CCN(Cc2ccccc2OCC)CC1 | >57 | i
CCCC1(CCC)NC(=O)N(CC(=O)Nc2ccccc2OC)C1=O | >57 | i
c1ccc2c(c1)nc(N1CCOCC1)c1nnnn12 | x | i
CCCCn1c(C(C)NC(=O)c2cccs2)nc2ccccc21 (configuration not stated) | >57 | i
Cn1c(=O)cc(SCC(=O)N2CCOCC2)c2ccc(Cl)cc21 | >57 | i
Clc1cccc(Nc2ncnc3c2cnn3-c2ccccc2)c1 | x | i
COc1cccc(NC(=O)c2nnn(CCc3ccccc3)c2N)c1 | x | i
COc1ccc(Oc2ncc3nc(C)c(=O)n(Cc4cccc(OC)c4)c3n2)cc1 | x | i
c1ccn2c(CNc3ncnc4sccc34)nnc2c1 | >57 | i
N=C1C(c2nc3ccccc3s2)=C(O)CN1Cc1ccco1 | >57 | i
CCOC(=O)N1CCC(NC(=O)C2CCN(c3nc(-c4ccc(OC)cc4)no3)CC2)CC1 | >57 | i
CCC1Cc2c(nc3c4c(nc(N5CCOCC5)c(C#N)c24)NC(C)=N3)O1 (configuration not stated) | >57 | i
CS(=O)(=O)N(CC(=O)N1CCN(c2ccccc2)CC1)C1CCCCC1 | >57 | i
CC(=Nc1ccc(C)c(C)c1)C1=C(O)CSC1=O | x | i
COC(=O)[C@H](C(C)C)n1c(C)c(C(C)=O)c(C(C)=O)c1C | >57 | i
N#Cc1cnc(SCCc2ccccc2)nc1N | >57 | i
CN(C)c1cc(NC(=O)CN2CCOCC2)c2ccccc2n1 | x | i
C=C(C)Cn1c(NCCOC)nc2c1c(=O)[nH]c(=O)n2C | >57 | i
COCCn1c(=O)c(-c2ccc(OC)cc2)nc2cnc(OCc3ccccc3)nc21 | x | i
O=c1oc2ccccc2c(O)c1/C=N/c1ccccn1 | >57 | i
CCCc1nc2n[nH]c(N)c2c2c1CCCC2 | >25.6 | x
COc1ccccc1Cn1c(=S)[nH]c2cc(C(=O)N3CCN(C)CC3)ccc2c1=O | >57 | i
COc1nc(OC)nc(N2CCC(C(=O)NC3CCCCCC3)CC2)n1 | >57 | i
CC(C)(C)C1CCc2onc(C(=O)N3CCOCC3)c2C1 (configuration not stated) | >57 | i
Cc1cc(NC(=O)CSC2=Nc3ccccc3C3=NC(Cc4ccccc4)C(=O)N23)n[nH]1 (configuration not stated) | >57 | i
COc1nc(-c2ccc(Cl)cc2)ccc1-c1noc(-c2ccncc2)n1 | x | i
COc1cccc(OC)c1C(=O)N1CCN(Cc2ccncc2)CC1 | >57 | i
NC1(C(=O)O)CCC1 | x | i
CCOC(=O)C1CCN(C(=O)CC(C)c2ccccc2)CC1 (configuration not stated) | >57 | i
COc1cc(C(=S)N2CCCC2)cc(Cl)c1O | >57 | i
O=C(Nc1cccc(F)c1)N1CC2(CCN(C(=O)c3cccc(F)c3)CC2)C1 | x | i
N#C/C(=C1/CCCCCN1)c1nc2ccccc2[nH]1 | >57 | i
CCOCC(=O)Nc1c(C(=O)Nc2ccccc2OC)oc2ccccc12 | >57 | i
COCCn1nnnc1C(c1cccc(C#N)c1)N1CCCCCC1 (configuration not stated) | >57 | i
Cc1nnc(NC(=O)c2ccc(S(=O)(=O)N(C)Cc3ccccc3)cc2)o1 | >57 | i
CCc1cccc2nc3c(c([Si](C)(C)C)c12)Cn1c-3cccc1=O | x | i
c1ccc(N2CCN(c3nc(NCc4ccco4)c4ccccc4n3)CC2)cc1 | >25.6 | x
O=C(NCc1ccc(F)cc1)C1CCN(C(=O)NCc2ccccc2)CC1 | >57 | i
CCC1CCCCN1C(=O)CSc1nc(N)c(NC(=O)c2ccco2)c(=O)[nH]1 (configuration not stated) | x | i
CCCCc1c2ccccc2nc2[nH]c3ccccc3c12 | x | i
Cc1cccc(-n2nnnc2SCC(=O)c2cc(C)n(CC3CCCO3)c2C)c1 (configuration not stated) | >57 | i
c1csc(-c2ccc3ccccc3n2)c1 | i | i
COC(=O)c1cc(NC(=O)CC2C(=O)NCCN2C(=O)c2ccccc2)cc(C(=O)OC)c1 (configuration not stated) | >57 | i
CCOC(=O)c1c(C)nc(-c2ccccc2)nc1NC(C)=O | x | i
Nc1[nH]ncc1C(=O)Nc1cccc(C(F)(F)F)c1 | >57 | i
(cont.)
SMILES | Bst PK mod | YjeE inh
Cc1ccc(NCN2C(=O)c3ccccc3C2=O)c(C)c1 | >57 | i
Cc1ccc(S(=O)(=O)C(CCC(=O)N2CCOCC2)S(=O)(=O)c2ccc(C)cc2)cc1 | u | i
O=c1[nH]c(NCc2ccccc2)nc2c1CCC2 | >57 | i
CC(=O)Nc1ccc(S(=O)(=O)NCc2cn3ccsc3n2)cc1 | >57 | i
O=C(c1ccco1)N1CCC[C@@]2(CCN(Cc3nccs3)C2)C1 | x | i
COc1cccc(C(=O)SC2=NCCS2)c1 | >57 | i
COc1ccccc1N(CC(=O)NCCSc1ccccc1)S(C)(=O)=O | x | i
COc1cccc(Cn2c(=O)c(CCc3ccccc3)nc3cnc(N4CCOCC4)nc32)c1 | x | i
Cc1cccc(OCC(O)CN2CCN(C3CCCCC3)CC2)c1 (configuration not stated) | >57 | i
Cc1ccc(OCC(=O)Nc2ccc(O)c(C(=O)O)c2)cc1C | >57 | i
CCC(C)(C)n1nnnc1CN(Cc1ccco1)Cc1cc2cc3c(cc2[nH]c1=O)OCO3 | >57 | i
O=C1OC2CC3CC1CC(O)(C3)C2 (configuration not stated) | >57 | i
CCN(CC)CCN=C1CCCc2ccccc2N1 | x | i
CC(Oc1cc(C(F)(F)F)cc(C(F)(F)F)c1)C(=O)NC(N)=O (configuration not stated) | >57 | i
COc1cccc(-n2c(SCC#N)nnc2-c2cnccn2)c1 | >57 | i
O=c1ccc2ccccc2o1 | x | i
Cn1c(=O)oc2cc(S(=O)(=O)N3CCCC(C(=O)N4CCc5ccccc5C4)C3)ccc21 (configuration not stated) | x | i
NCCSS(=O)(=O)CCN | x | i
CCOC(=O)c1c(NC(=O)COc2ncnc3sccc23)sc2c1CCC2 | >57 | i
Cc1cc2nnc(SCC(=O)NCc3cccs3)n2c(N)n1 | >57 | i
CCn1c(SCC(=O)Nc2ccccc2N2CCOCC2)nnc1-c1ccccc1O | >57 | i
CCOc1cc(CN2CCN(C(=O)c3ccco3)CC2)ccc1OC | x | i
O=C(Nc1nncs1)c1ccc(S(=O)(=O)c2ccccc2)cc1 | >57 | i
Cn1c(C(=O)N2CCc3ccccc32)cc2c(=O)n3ccccc3nc21 | x | i
CCc1nnc(NC(=O)CN2C(=O)c3ccccc3C2=O)s1 | >57 | i
CN(C)CCn1c(C(=O)O)cc2ccccc21 | >57 | i
Nc1cc(N)nc(SCC(=O)N2CCCCC2)n1 | >57 | i
CCOc1ccccc1-n1cnc2cc(C(=O)NCc3ccco3)ccc21 | >57 | i
N#CCCN1CCN(C2=NC(=O)C(=C3CCCCC3)S2)CC1 | >57 | i
COCCNc1ccnc(-c2c(C)noc2C)n1 | x | i
O=C(c1ccco1)N1CCC2(CC1)CCN(c1ccncc1)CC2 | x | i
COc1ccccc1-c1nnc(NC(C)=O)s1 | x | i
Cc1ccc(-c2[nH]nc3c2C(c2ccoc2)C(C#N)=C(N)O3)cc1C (configuration not stated) | >57 | i
C=C(NC(=O)C(=C)NC(=O)c1csc(C2=N[C@@H]3c4csc(n4)[C@@H]4NC(=O)c5csc(n5)[C@@H]([C@](C)(O)[C@H](C)O)NC(=O)[C@@H]5CSC(=N5)/C(=C/C)NC(=O)[C@@H]([C@H](C)O)NC(=O)c5csc(n5)[C@]3(CC2)NC(=O)[C@@H](C)NC(=O)C(=C)NC(=O)[C@@H](C)NC(=O)[C@@H]([C@@H](C)CC)N[C@H]2C=Cc3c([C@H](C)O)cc(nc3[C@@H]2O)C(=O)O[C@H]4C)n1)C(N)=O | x | i
COc1ccc(S(=O)(=O)N2CCCC2C(=O)Nc2ccc(C)cc2)cc1 (configuration not stated) | >57 | i
c1cncc(-c2nnc(-c3cccs3)o2)c1 | >57 | i

Reprinted at random: 5 entries already listed.
SMILES | Bst PK mod | YjeE inh
CN(C)CCn1c(C(=O)O)cc2ccccc21 | >57 | i
COCCNc1ccnc(-c2c(C)noc2C)n1 | x | i
CCOc1ccccc1-n1cnc2cc(C(=O)NCc3ccco3)ccc21 | >57 | i
c1cncc(-c2nnc(-c3cccs3)o2)c1 | >57 | i
CCc1nnc(NC(=O)CN2C(=O)c3ccccc3C2=O)s1 | >57 | i

(listing goes on)
SMILES | Bst PK mod | YjeE inh
Cn1c(=O)c2c(nc(N3CCc4ccccc4C3)n2Cc2ccc(Br)cc2)n(C)c1=O | >57 | i
COc1ccccc1/C=C/CN1CCOCC1 | >57 | i
CCOC(=O)C1=C(C)NC(=O)NC1c1ccccc1Cl (configuration not stated) | >57 | i
CN(Cc1ccccc1)C(=O)CSc1nc2ccccc2c(=O)n1Cc1ccco1 | >57 | i
NC[C@H]1O[C@H](n2cnc3c(N)ncnc32)C[C@@H]1O | x | i
COc1ccc2c(c1OC)C(=O)OC2[C@H]1c2c(cc3c(c2OC)OCO3)CCN1C (some centres not stated) | x | i
Cn1ncc(C#N)c1NC(=O)C1CC(c2c(F)cccc2Cl)=NO1 (configuration not stated) | >57 | i
O=C(Cc1cccs1)NCc1ccccc1F | >57 | i
CSc1nncc(-c2ccc(F)c(F)c2)n1 | x | i
CC(C)Cn1c(N)c(C(=O)CSc2ccc3c(c2)OCCO3)c(=O)n(C)c1=O | >57 | i
CCOC(=O)c1cnc(SCC)[nH]c1=O | >57 | i
Cn1c(=O)c(=O)n(C)c2cc(S(=O)(=O)N3CCOCC3)ccc21 | >57 | i

Looked up above.
`CC(=O)Nc1ccc(S(=O)(=O)NCc2cn3ccsc3n2)cc1` @ Bst PK mod: >57
`Cc1cc(C)c(NC(=O)CS(=O)CC(=O)Nc2cccnc2)c(C)c1` (configuration not stated) @ Bst PK mod: >57

Continuation.
SMILES | Bst PK mod | YjeE inh
CCOC(=O)c1c(C)n(C)c2c(C)cc(O)c(OC(C)=O)c12 | x | i
CCCCCCOc1ccc(/C(N)=N/O)cc1 | >57 | i
NC(=O)c1ccccc1NC(=O)CS(=O)(=O)Cc1ccccc1 | 2.95* | i
Cc1ccc2c(c1)N(CC(=O)NCC1COc3ccccc3O1)C(=O)CO2 (configuration not stated) | x | i
CCCCC(=O)N=c1sc2cc(S(C)(=O)=O)ccc2n1C | >57 | i
c1cc2c(nn1)CCc1nonc1-2 | >57 | i
CC1=C(C#N)c2nc(N)c(C#N)c(C)c2/C1=C\c1ccccc1 | >57 | i
O=C(c1cnsn1)N1CCN(c2ccccn2)CC1 | >57 | i
CC(=O)Nc1ccc(NC(=O)CN(C)CCC#N)cc1 | x | i
CCOC(=O)c1nn(-c2ccc(OC)cc2)c(=O)c2c(NC(=O)c3ccco3)scc12 | >57 | i
Cc1ccc(NC2=CC(=O)CC(C)(C)C2)c(N)c1 | >57 | i
C/C(=C\C(=O)c1ccccc1)Nc1cccc(O)c1 | x | i
CCc1c(C)[nH]n(-c2ccc(Oc3ccccc3)c(S(=O)(=O)O)c2)c1=O | x | i
O=C(Nc1nc(-c2cc(Cl)sc2Cl)cs1)c1cccs1 | x | i
CC(C)Cn1cnc2c(c1=O)c1nc3ccccc3nc1n2Cc1ccc2c(c1)OCO2 | >25.6 | x
O=C(NCCN1CCN(c2ccccc2)CC1)C1CCN(S(=O)(=O)N2CCOCC2)CC1 | >57 | i
Cc1ccc(CN(C)C(=O)C2CCCN2C(=O)c2cccs2)o1 (configuration not stated) | >57 | i
O=C1c2ccccc2C(=O)c2c1ccc(N1C(=O)c3ccccc3C1=O)c2-c1c(N2C(=O)c3ccccc3C2=O)ccc2c1C(=O)c1ccccc1C2=O | x | i

Six neighbouring records from above, for reference:
SMILES | Bst PK mod | YjeE inh
CCc1c(C)[nH]n(-c2ccc(Oc3ccccc3)c(S(=O)(=O)O)c2)c1=O | x | i
O=C(Nc1nc(-c2cc(Cl)sc2Cl)cs1)c1cccs1 | x | i
CC(C)Cn1cnc2c(c1=O)c1nc3ccccc3nc1n2Cc1ccc2c(c1)OCO2 | >25.6 | x
O=C(NCCN1CCN(c2ccccc2)CC1)C1CCN(S(=O)(=O)N2CCOCC2)CC1 | >57 | i
Cc1ccc(CN(C)C(=O)C2CCCN2C(=O)c2cccs2)o1 (configuration not stated) | >57 | i
O=C1c2ccccc2C(=O)c2c1ccc(N1C(=O)c3ccccc3C1=O)c2-c1c(N2C(=O)c3ccccc3C2=O)ccc2c1C(=O)c1ccccc1C2=O | x | i
